rRNA inh HTS – reduced GFP signal of wild-type E. coli, primary screen, bacterial rRNA inhibitor project, GFP/RFP fluorescence, OD600, single point. GFP signal change (wild-type ribosome), % (concentration not given with the values). E. coli WT GFP vs humanized-ribosome RFP mutants, 24 h; active compounds read low; DMSO median 0, no signal -100. AID 720706, 2013. actives 1.6% (n = 350,000);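 active = significant combined selectivity score with lowered wild-type GFP, culture density cut under 30%, mutant RFP and density less affected; inactive = any of these conditions unmet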; also: one replicate is shown; some compounds called inactive have numbers as strong as hits
rRNA inh HTS OD600 – second read-out of rRNA inh HTS, no call of its own (marks repeat the call); OD600 change, %; measured here: OD600 growth;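 optical density of the mix in the first replicate; 0 = DMSO median and -100 = no signal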
rRNA inh HTS RFP – recorded beside rRNA inh HTS, whose call it bears; RFP signal change, %; measured here: RFP humanized mutant strains;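 first replicate; 0 = DMSO median and -100 = no signal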
Numbers without * were called inactive. This is a subset; count on the stated rates, not on these rows.

SMILES	rRNA inh HTS	rRNA inh HTS OD600	rRNA inh HTS RFP
CN1[C@@H]2c3ccc(-c4cccnc4)c(=O)n3C[C@H]1[C@H](CO)[C@H]2C(=O)NCCc1ccccc1	1	2	-1.7
Cc1ccc(S(=O)(=O)Nc2ccc3c(c2)C(=O)N([C@H](C)CO)C[C@H](C)[C@H](CN(C)Cc2ccc(Oc4ccccc4)cc2)O3)cc1	2	-13	12
CC(=O)N(C)C[C@@H]1Oc2ccc(N(C)C)cc2C(=O)N(C)C[C@H]1C	-1	-2	-0.5
C[C@H](CO)N1C[C@H](C)[C@@H](CN(C)C(=O)[C@@H](Cc2ccccc2)N(C)C)OCc2ccccc2-c2c(n(C)c3ccccc23)C1=O	1	2	-1.1
C/C=C/c1ccc2c(c1)O[C@H](CN(C)C(=O)C1CCC1)[C@@H](C)CN([C@H](C)CO)S2(=O)=O	-2	3	0.1
C[C@@H]1CN([C@@H](C)CO)S(=O)(=O)c2ccc(-c3ccncc3)cc2O[C@@H]1CN(C)C(=O)C1CCC1	-2	1	-1.4
O=C1NCCOCc2cn(nn2)CC[C@@H]1Cc1ccc(F)cc1	6	5	-1.7
C[C@H](CO)N1C[C@H](C)[C@H](CN(C)S(=O)(=O)c2ccccc2)Oc2ccc(NS(C)(=O)=O)cc2C1=O	4	9	0.9
CNC[C@H]1OCCCC[C@@H](C)Oc2ccc(NS(=O)(=O)c3cn(C)cn3)cc2C(=O)N([C@@H](C)CO)C[C@@H]1C	4	5	-5.6
C[C@@H]1CN([C@H](C)CO)C(=O)c2cc(NC(=O)c3ccccc3)ccc2O[C@@H](C)CCCCO[C@@H]1CN(C)S(=O)(=O)c1cccs1	2	3	5.1
COc1ccccc1C(=O)Nc1ccc2c(c1)OC[C@@H](C)N(CC1CC1)C[C@H](C)[C@@H](OC)CN(C)C2=O	-7	-10	1.8
C[C@@H]1CN([C@H](C)CO)S(=O)(=O)c2ccc(-c3ccncc3)cc2O[C@@H]1CN(C)C(=O)C1CCCCC1	-7	-1	-3.0
CC(=O)NC[C@@H]1[C@@H](c2ccc(C3=CCCCC3)cc2)[C@H](CO)N1C(=O)NC(C)C	1	-20	4.9
COc1ccc(NC(=O)Nc2ccc3c(c2)C(=O)N([C@H](C)CO)C[C@H](C)[C@@H](CN(C)S(=O)(=O)c2c(C)noc2C)O3)cc1	-1	2	-0.4
CC(C)NC(=O)Nc1ccc2c(c1)C(=O)N([C@@H](C)CO)C[C@@H](C)[C@H](CN(C)Cc1ccc3c(c1)OCO3)OCCCC[C@H](C)O2	0	-2	-0.8
CO[C@@H]1CN(C)C(=O)c2cc(NC(=O)C3CCCC3)ccc2OC[C@H](C)N(C(C)=O)C[C@@H]1C	0	4	-2.4
C[C@@H]1CN([C@@H](C)CO)C(=O)c2cc(C#Cc3cccc(F)c3)cnc2O[C@H]1CN(C)C(=O)C1CCOCC1	-2	-12	-2.9
CNC[C@@H]1Oc2ccc(NC(=O)CCN3CCOCC3)cc2C(=O)N([C@H](C)CO)C[C@H]1C	-2	-5	0.6
COCC(=O)Nc1ccc2c(c1)OC[C@@H](C)N(C(=O)C1CCCC1)C[C@H](C)[C@@H](OC)CN(C)C2=O	-1	1	-1.9
COC(=O)C1=C(C)N(Cc2ccc(Cl)cc2)C(=S)NC1c1ccccc1 (configuration not stated)	-12	-4	-2.4
O=C(c1ccccn1)N1C[C@H]2[C@@H](c3ccccc31)[C@@H](CO)N2C(=O)Nc1ccccc1Cl	3	-7	-1.0
C/C=C/c1ccc([C@H]2[C@@H](CO)N(C(=O)C3CCC3)[C@H]2CNC(=O)NC(C)C)cc1	-2	3	-1.1
CCCc1nc2ccccc2n1C(C)C(=O)NC(C)(C)C (configuration not stated)	20	19	-4.0
C[C@H]1CN([C@@H](C)CO)C(=O)Cc2cc(NS(=O)(=O)c3ccc(F)cc3)ccc2O[C@@H]1CN(C)S(=O)(=O)c1ccc(Cl)cc1	-3	-1	-0.7
CCNC(=O)[C@@H]1[C@@H](CO)[C@@H]2Cn3c(ccc(C4=CCCCC4)c3=O)[C@H]1N2CC	0	7	-0.1
CCCC(=O)Nc1ccc2c(c1)C(=O)N(C)C[C@@H](OC)[C@@H](C)CN(C(=O)CC)[C@@H](C)CO2	-1	-4	-1.1
CN1CCN(C(=O)C[C@@H]2C=C[C@H](NC(=O)Nc3ccccc3F)[C@@H](CO)O2)CC1	1	5	1.9
O=C(/C=C(\Nc1cccc(F)c1)c1ccccc1)c1ccccc1	-20	-26	-7.6
C[C@H](CO)N1C[C@H](C)[C@H](CN(C)C(=O)C2CCCCC2)Oc2ncc(C#CC(C)(C)O)cc2C1=O	6	7	-3.3
O=C(Nc1ccc(F)cc1)C(CCc1ccccc1)N1CCN(c2ccncc2)CC1 (configuration not stated)	5	-4	3.6
COCC#Cc1cnc2c(c1)C(=O)N([C@H](C)CO)C[C@@H](C)[C@@H](CN(C)Cc1ccc(-c3ccccc3)cc1)O2	-2	0	5.4
COc1ccc(S(=O)(=O)Nc2ccc3c(c2)C(=O)N([C@@H](C)CO)C[C@H](C)[C@H](CN(C)C(=O)Nc2ccccc2)OCCCC[C@H](C)O3)cc1	-6	-4	-1.5
C[C@@H]1CCCCO[C@@H](CN(C)S(=O)(=O)c2cccs2)[C@@H](C)CN([C@H](C)CO)C(=O)c2cc(NC(=O)NC3CCCCC3)ccc2O1	1	7	0.0
CCCC#Cc1ccc2c(c1)O[C@H](CN(C)S(=O)(=O)c1cccc(OC)c1)[C@@H](C)CN([C@H](C)CO)S2(=O)=O	8	7	1.3
CN(C)CC(=O)Nc1ccc2c(c1)[C@H]1C[C@@H](CC(=O)N3CCOCC3)O[C@H](CO)[C@H]1O2	3	3	-2.9
C[C@@H]1CC(=O)NCC/C=C\C[C@H](c2ccc3c(c2)OCO3)NC1=O	6	10	0.4
Cc1ccc(S(=O)(=O)Nc2ccc3c(c2)C(=O)N([C@H](C)CO)C[C@H](C)[C@@H](CN(C)Cc2ccc(Oc4ccccc4)cc2)O3)cc1	-4	-9	3.5
Cc1ccc(C(=O)NC2CCCCN(C)C2=O)cc1 (configuration not stated)	13	15	2.0
CCCN1CCCCC(NC(=O)c2ccccc2C)C1=O (configuration not stated)	10	14	2.6
O=C1c2cccc3cccc(c23)C(=O)N1CC1CCN(S(=O)(=O)c2ccccc2)CC1	15	5	-4.0

Just rRNA inh HTS OD600, for some of the entries so far:
smiles	rRNA inh HTS OD600
CCCC#Cc1ccc2c(c1)O[C@H](CN(C)S(=O)(=O)c1cccc(OC)c1)[C@@H](C)CN([C@H](C)CO)S2(=O)=O	7
CN(C)CC(=O)Nc1ccc2c(c1)[C@H]1C[C@@H](CC(=O)N3CCOCC3)O[C@H](CO)[C@H]1O2	3
C[C@@H]1CC(=O)NCC/C=C\C[C@H](c2ccc3c(c2)OCO3)NC1=O	10

Further compounds:
SMILES	rRNA inh HTS	rRNA inh HTS OD600	rRNA inh HTS RFP
Cc1cccc(-c2ccc([C@@H]3[C@@H](CO)N4C(=O)CN(C(=O)c5cnccn5)C[C@H]34)cc2)c1	-2	-6	-0.9
CNC[C@H]1OCCCC[C@H](C)Oc2ccc(NS(=O)(=O)c3cn(C)cn3)cc2C(=O)N([C@@H](C)CO)C[C@H]1C	5	7	-3.9
C[C@H]1CN([C@@H](C)CO)S(=O)(=O)c2ccc(-c3ccncc3)cc2O[C@@H]1CN(C)C(=O)C1CCCCC1	-11	-1	2.4
C[C@@H]1CN([C@@H](C)CO)C(=O)c2cccc(NS(C)(=O)=O)c2O[C@H]1CN(C)S(=O)(=O)c1ccc(F)cc1	3	8	-3.1
C[C@@H]1CN([C@H](C)CO)C(=O)c2cc(NS(=O)(=O)c3cn(C)cn3)ccc2O[C@H]1CN(C)C(=O)Nc1ccc(F)cc1	3	9	-0.4
CC(C)NC(=O)Nc1ccc2c(c1)C(=O)N([C@@H](C)CO)C[C@H](C)[C@@H](CN(C)S(=O)(=O)c1cccs1)O2	-2	4	2.2
CC(=O)N1[C@H](CN(C(=O)c2ccccc2)C(C)C)[C@H](c2ccccc2)[C@@H]1CO	1	1	-1.3
CC(C)NC(=O)Nc1ccc2c(c1)C(=O)N([C@H](C)CO)C[C@@H](C)[C@H](CN(C)C(=O)C1CCCCC1)OCCCC[C@H](C)O2	1	7	0.3
O=C1N[C@@H](c2ccccc2)COCc2cn(nn2)CC[C@@H](Cc2ccc(C(F)(F)F)cc2)C(=O)N[C@@H](c2ccccc2)COCc2cn(nn2)CC[C@H]1Cc1ccc(C(F)(F)F)cc1	-3	5	-4.0
COC(=O)C[C@H]1C[C@@H]2c3cc(NS(=O)(=O)c4ccccc4)ccc3O[C@@H]2[C@@H](CO)O1	-1	1	2.2
COc1ccc(NC(=O)N(C)C[C@@H]2Oc3c(NC(=O)Nc4ccc(C(F)(F)F)cc4)cccc3C(=O)N([C@@H](C)CO)C[C@@H]2C)cc1	1	1	-2.7
C[C@H]1CN([C@@H](C)CO)S(=O)(=O)c2ccc(C3=CCCC3)cc2O[C@@H]1CN(C)C(=O)c1cnccn1	2	-3	-0.3
O=Cc1ccccc1Cl	1	-4	-2.2
COC(=O)C[C@@H]1C[C@@H]2c3cc(NC(=O)Nc4ccc(OC)cc4)ccc3O[C@@H]2[C@H](CO)O1	-4	1	1.7
Cc1ccc(S(=O)(=O)N(C)C[C@@H]2Oc3c(NS(=O)(=O)c4ccc(F)cc4)cccc3C(=O)N([C@@H](C)CO)C[C@H]2C)cc1	-2	3	0.6
CCNC[C@@H]1[C@@H](c2ccc(-c3ccc(F)cc3)cc2)[C@H](CO)N1S(C)(=O)=O	-3	-3	3.0
COc1ccc(C2CC(=O)C(c3ccc(Cl)c(Cl)c3)=CN2Cc2ccccc2)cc1 (configuration not stated)	18	7	-1.6
COc1ccc(-c2cn(CC[C@@H]3CC[C@@H](NC(=O)Nc4ccc(F)cc4)[C@H](CO)O3)nn2)cc1	-1	2	2.2
COc1ccc2c3c(n(C)c2c1)[C@H](CO)N(C(C)=O)CC31CN(C(=O)c2ccccc2)C1	-2	1	-2.4
C/C=C/c1cnc2c(c1)C(=O)N([C@@H](C)CO)C[C@@H](C)[C@@H](CN(C)C(=O)C1CCC1)O2	4	8	-4.9
C[C@@H]1ON(C)[C@H]2C[C@H]3c4[nH]c5cccc(-c6cccc(F)c6)c5c4CCN3C(=O)[C@@H]12	-36	-72	-11
CO[C@@H]1CN(C)C(=O)c2cc(NC(=O)c3ccc(F)cc3)ccc2OC[C@H](C)N(C(=O)CC2CC2)C[C@@H]1C	-4	-3	-0.7
CN1c2ccc(-c3cccc(C#N)c3)cc2[C@H]2[C@H](CCN2C(=O)Nc2cc(F)ccc2F)[C@H]1CO	0	-5	12
CCCNC(=O)Nc1ccc2c(c1)C(=O)N(C)C[C@H](OC)[C@H](C)CN(CCC(F)(F)F)[C@H](C)CO2	-2	-2	1.8
C/C=C/c1ccc([C@@H]2[C@@H](CO)N(C(=O)NCCC)[C@H]2CN(C)C(=O)CC)cc1	-1	2	-2.3
CC(C)NC(=O)N(C)C[C@@H]1Oc2ccc(N)cc2C(=O)N(C)C[C@H]1C	0	5	0.0
CCCC#Cc1ccc([C@H]2[C@@H](CO)N3CCCCN(Cc4cncnc4)C[C@H]23)cc1	2	13	1.6
C[C@H](CO)N1C[C@H](C)[C@H](CN(C)C(=O)Nc2cccc3ccccc23)Oc2ccc(NC(=O)Nc3ccc(C(F)(F)F)cc3)cc2C1=O	-1	5	2.0
C[C@@H]1CN([C@H](C)CO)S(=O)(=O)c2ccc(Br)cc2O[C@@H]1CN(C)CC1CCOCC1	7	11	-4.7
CO[C@@H]1CN(C)C(=O)c2cc(NC(=O)C3CC3)ccc2OC[C@@H](C)N(CCc2ccccc2)C[C@@H]1C	0	-8	-0.9
C[C@H]1CN([C@@H](C)CO)C(=O)Cc2cc(NC(=O)Nc3ccc(C(F)(F)F)cc3)ccc2O[C@H]1CN(C)Cc1ccc(Oc2ccccc2)cc1	8	18	-0.3
O=C(C[C@@H]1CC[C@@H]2[C@H](COC[C@@H](O)CN2C(=O)Nc2ccc(F)cc2)O1)NC1CCC1	-2	-3	1.6
C[C@@H]1CN([C@H](C)CO)C(=O)c2cc(-c3ccc(F)cc3)cnc2O[C@H]1CN(C)C(=O)Nc1ccc(F)cc1	-2	-3	3.8
C[C@H]1CN([C@@H](C)CO)C(=O)c2cccc(NS(=O)(=O)c3ccccc3)c2O[C@H]1CN(C)S(=O)(=O)c1ccc(F)cc1	-3	0	-1.1
COC(=O)C1=C(C)N(C)C(=NCC2CC2)NC1c1ccccc1C(F)(F)F (configuration not stated)	19	29	4.9

Sorted by the number under rRNA inh HTS (low to high): 3 from the list above.
canonical_smiles	rRNA inh HTS
CO[C@@H]1CN(C)C(=O)c2cc(NC(=O)C3CC3)ccc2OC[C@@H](C)N(CCc2ccccc2)C[C@@H]1C	0
C[C@H]1CN([C@@H](C)CO)S(=O)(=O)c2ccc(C3=CCCC3)cc2O[C@@H]1CN(C)C(=O)c1cnccn1	2
O=C(c1ccccn1)N1C[C@H]2[C@@H](c3ccccc31)[C@@H](CO)N2C(=O)Nc1ccccc1Cl	3

Complete entries, quoted from the list.
`C[C@H]1CN([C@@H](C)CO)C(=O)Cc2cc(NC(=O)Nc3ccc(C(F)(F)F)cc3)ccc2O[C@H]1CN(C)Cc1ccc(Oc2ccccc2)cc1` is entered as rRNA inh HTS: 8; rRNA inh HTS OD600: 18; rRNA inh HTS RFP: -0.3
`C[C@H]1CN([C@@H](C)CO)C(=O)c2cccc(NS(=O)(=O)c3ccccc3)c2O[C@H]1CN(C)S(=O)(=O)c1ccc(F)cc1` is entered as rRNA inh HTS: -3; rRNA inh HTS OD600: 0; rRNA inh HTS RFP: -1.1
